High-throughput results: PubChem BioAssay, National Center for Advancing Translational Sciences (NCATS)
miR-21 reporter = miR-21 reporter, rising signal | HeLa miR-21 FLuc reporter, luciferase, 48 h | Potency, µM (highest dose often 38.3 µM), without a hit: at the top dose reporter change, positive = more light | 340,000 tested, under 10 active | AID 2288; active = well fitted rising curve with a large enough effect; inconclusive = small, poorly fitted or top-dose-only effect; inactive = no such curve, though single readings can be large or run the other way;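 also: % of control where 0% means no effect; miR-21 action dims this reporter so a rising signal means less miR-21 action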
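Compounds were titrated across several concentrations (up to approximately 40 uM) and incubated 48 hours with HeLa miR-21-FLuc reporter cells (miR-21 target sequence downstream of FLuc, endogenous miR-21). Readout was firefly luciferase luminescence after lytic detection reagent.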
Rango dissoc inh = inhibitors of RanGTP-induced Rango-importin beta complex dissociation. O95149+P62826. Biochemical FRET Rango-importin beta, RanGTP-induced dissociation. Potency, µM (highest dose often 46.1 µM), without a hit: at the highest dose activity change, negative = inhibition. actives 0.071% (n = 340,000). AID 540253; active means falling FRET ratio curve, often poorly fitted, with flat reads before Ran was added; inconclusive means other falling curves, or compound fluorescence or quenching; inactive means flat or rising ratio curve;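 also: potency is read from the fitted curve at half-maximal effect; % of control where 0% means no effect; nearly all actives have a fitted effect of over 45% in size; -100% = wells without RanGTP and RCC1; the record marks most hits as doubtful in a second field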
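Rango FRET biosensor (snurportin-1 IBB flanked by N-terminal EYFP and C-terminal CFP10) at 0.1 uM, with 0.25 uM importin beta in PBS, 1mM DTT, 0.02% Tween-20, 0.1% BSA. 0.6 uM Ran, 2mM GTP and 0.2 uM RCC1 were then added for 45 min at room temperature. Inhibition read as loss of FRET rise.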
GLA inh pH 4.5 = inhibitors of human alpha-galactosidase A at pH 4.5. activity change, negative = inhibition, % at 105 µM. purified enzyme, 4-MU-alpha-Gal fluorescence, pH 4.5. 230,000 tested, under 10 active. P06280; inconclusive = small, poorly fitted or top-dose-only inhibition, or a rising curve; inactive = flat fitted curve, though single readings scatter; no compound was filed as active;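 also: 0% = full activity with enzyme and -100% = basal without enzyme; dose as in the result columns while the protocol names 77 µM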
Rango complex inh = Rango-importin beta binding inhibition; Potency, µM (top dose mostly 92.2 µM), for the others: at the top dose inhibition of complex formation; Rango CFP/YFP FRET sensor + importin beta, 45 min; actives 0.031% (n = 340,000); Q14974; AID 540263; active = rising FRET ratio curve, often small or poorly fitted; inconclusive = mostly compound fluorescence or quenching in the first reads; inactive = flat curves in all reads;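 also: potency is read from the fitted curve at half-maximal effect; 0% = DMSO wells and 100% = buffer wells lacking importin beta; nearly all actives have a fitted effect of over 15% in size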
Target sequence (Q14974 whole entry, looked up): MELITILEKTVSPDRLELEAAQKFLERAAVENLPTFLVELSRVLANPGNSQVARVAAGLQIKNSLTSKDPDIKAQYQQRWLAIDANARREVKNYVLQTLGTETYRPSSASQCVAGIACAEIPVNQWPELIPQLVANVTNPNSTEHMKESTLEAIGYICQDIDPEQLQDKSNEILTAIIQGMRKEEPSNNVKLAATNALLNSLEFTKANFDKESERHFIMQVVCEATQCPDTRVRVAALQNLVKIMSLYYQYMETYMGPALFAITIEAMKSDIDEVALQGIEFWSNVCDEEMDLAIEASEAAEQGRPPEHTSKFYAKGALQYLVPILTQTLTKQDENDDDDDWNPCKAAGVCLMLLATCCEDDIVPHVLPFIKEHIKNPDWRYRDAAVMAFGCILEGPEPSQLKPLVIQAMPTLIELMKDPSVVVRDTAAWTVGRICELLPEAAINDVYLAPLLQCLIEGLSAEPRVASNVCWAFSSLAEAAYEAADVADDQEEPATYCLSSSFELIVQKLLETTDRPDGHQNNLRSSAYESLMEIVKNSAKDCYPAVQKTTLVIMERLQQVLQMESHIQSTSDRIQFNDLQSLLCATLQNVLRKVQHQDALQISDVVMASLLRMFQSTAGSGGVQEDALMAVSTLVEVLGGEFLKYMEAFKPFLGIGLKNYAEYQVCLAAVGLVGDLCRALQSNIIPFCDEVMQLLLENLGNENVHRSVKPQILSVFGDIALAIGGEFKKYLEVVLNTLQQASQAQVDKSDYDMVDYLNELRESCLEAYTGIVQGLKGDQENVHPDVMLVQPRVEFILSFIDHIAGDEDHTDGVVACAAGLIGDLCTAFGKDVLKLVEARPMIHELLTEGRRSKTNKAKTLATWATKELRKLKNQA
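Inhibition scored from the CFP 486 nm/YFP 530 nm FRET ratio 45 min after adding 0.125 microM importin beta to 50 nM Rango biosensor preincubated 5 min with compound (room temperature, PBS with DTT, Tween-20, BSA). No-importin wells as positive control.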
An asterisk follows results filed as active; ? = inconclusive; . = not tested or not shown; [ ] = dose if it differs, or a comment. A portion of the library (hit frequency here may not be typical).

SMILES	miR-21 reporter	Rango complex inh	Rango dissoc inh	GLA inh pH 4.5
CC1CN(CC(=O)Nc2ccc(Br)cn2)CC(C)O1 (configuration not stated)	0%	-1.8%	5%	.
O=C(NCc1ccccc1Cl)c1csc2c1CCCCC2	-10%	0.1%	2%	3
O=C(NCCOCCOCCNC(=O)c1ccccc1)c1ccccc1	-1%	-1.5%	-1%	0
CC1(C)CC(=O)C2=C(C1)OC1=C(C2)C(=O)CC(C)(C)C1	-3%	1.8%	5%	-10
O=C(c1cccc(C(F)(F)F)c1)C1CCCN(C(=O)CCc2cnccn2)C1 (configuration not stated)	-2%	0.7%	4%	-28
Cc1c(C(=O)Nc2ccc(Cl)cc2)c2ccccn2c1C(=O)c1ccccc1	-3%	-1.7%	?	10
Cc1ccccc1N(CC(=O)N1CCOCC1)S(C)(=O)=O	-13%	0.0%	1%	-14
CCn1cc(/C=N\NC(=O)c2c[nH]c3ccccc23)c(C)n1	-38%	-0.6%	8%	7
O=C1Nc2ccccc2CCc2ccccc21	.	-3.8%	-8%	.
O=C(Nc1ccc(Oc2ccc(Cl)cc2)c(Cl)c1)c1cc(I)cc(I)c1O	0%	-1.9%	-3%	.
NC(=O)COC(=O)C(Cc1ccccc1)NS(=O)(=O)c1ccccc1F (configuration not stated)	-1%	-4.4%	-1%	-1
Cc1cc(S(=O)(=O)NCCc2ccccc2)c(C)s1	-11%	4.2%	-21%	8
CCCC(=O)NC(c1ccccc1OC)c1ccc2cccnc2c1O (configuration not stated)	?	0.3%	-3%	0
Cc1cc(=O)oc2c(CN(CC(C)C)CC(C)C)c(O)ccc12	-3%	?	?	?
CCn1c(=O)c2ccccc2n2c(SCC(=O)N3CCCc4ccccc43)nnc12	-5%	2.1%	-12%	3
CC(C)N(Cc1ccccc1)C(=O)c1ccc2c(c1)OCO2	-2%	-1.5%	-4%	.
Cc1ccc(-c2csc(C(C#N)=C(O)CN3CCN(C(=O)c4ccco4)CC3)n2)cc1	.	-1.8%	2%	.
O=C(O)COc1ccccc1C=NNc1ccc([N+](=O)[O-])cc1S(=O)(=O)Nc1ccc(Cl)cc1	.	?	?	.
Cc1c(-c2ccccc2)nc2ccccc2c1C(=O)O	-3%	-1.0%	-3%	-7
CCOC(=O)C(CC)Sc1nc2c(c(=O)[nH]c(=O)n2C)n1C/C=C(/C)Cl (configuration not stated)	-8%	-0.9%	4%	3
O=C(COC(=O)CCSc1ccccc1)Nc1ccccc1	.	?	0%	.
Cn1c(N)c(C(=O)COC(=O)CCCc2nc3ccccc3s2)c(=O)n(C)c1=O	7%	7.1%	0%	-1
CC1CN(C(=O)c2cc(-c3ccncc3)nc3ccccc23)CC(C)O1 (configuration not stated)	.	?	1%	.
CN1CC[C@@H]2C(=O)N3CCc4ccc(-c5ccc6c(c5)OCO6)cc4[C@@H]3C[C@@H]21	.	-0.7%	-17%	.
CN(C)CCn1c2c(c(SCC(=O)Nc3ccccc3C(F)(F)F)nc1=O)CCCC2	.	?	-5%	.
CCOC(=O)c1[nH]c(C)c(C(=O)N2CCN(c3ccccc3)CC2)c1C	-11%	-4.5%	-1%	-3
Cn1c(SCCSc2nnc(-c3ccccc3)n2C)nnc1-c1ccccc1	2%	.	.	12
Cn1c(SCc2c(Cl)cccc2Cl)nnc1-c1ccc2nonc2c1	-9%	-5.7%	30%	4
COC(=O)c1ccc(C(C(=O)NC2CCCCC2)N(Cc2ccccc2)C(=O)Cc2cccs2)cc1 (configuration not stated)	-7%	-0.6%	2%	-1
CCN=C1S/C(=C\c2ccc(OCC)c(OC)c2)C(=O)N1CC	-18%	1.9%	11%	-8
CCCCC(C(=O)OCC)C(N)Cc1ccc(F)cc1 (configuration not stated)	2%	-0.8%	1%	-11[21.1 µM]
O=S(=O)(Nc1ccc(Cl)nn1)c1ccccc1	-1%	-1.7%	-3%	3
COc1cc(NC(=S)NNC(=O)C(C)(C)O)cc(OC)c1	-3%	2.4%	-20%	8
CN(CC(=O)Nc1cccc2c1CCCC2)S(=O)(=O)c1ccc(Cl)cc1	-5%	3.1%	-19%	-7
Cc1ccc(C(=O)OCCN2CCN(c3ncc(C(F)(F)F)cc3Cl)CC2)cc1	-4%	-0.6%	21%	-8
Cc1cc(C)c(C#N)c(SCc2ccccc2C(=O)O)n1	1%	-0.4%	-8%	3
Cc1ccc(NC(=O)CNC(=O)N2CC(=O)Nc3ccccc32)cc1F	-1%	-0.8%	1%	.
Cn1c(N/N=C/c2cccs2)nc2c1c(=O)n(Cc1ccccc1)c(=O)n2C	-10%	0.4%	-8%	3
CC(C)N1C/C(=C/c2ccsc2)C(=O)/C(=C/c2ccsc2)C1	?	?	-12%	1
COC(=O)COc1ccc(S(=O)(=O)Nc2cc([N+](=O)[O-])ccc2C)cc1	0%	0.8%	-3%	?
CCOC(=O)[C@@H]1C(c2c(OC)cc(OC)cc2OC)=NO[C@@H]1C(=O)OCC	0%	-4.5%	-9%	0
CN(C)c1cccc(C(=O)OCc2cc(=O)oc3cc(O)ccc23)c1	-35%	?	?	0
O=C(Nc1ccc(OC(F)(F)F)cc1)Oc1ccccc1N1CCOCC1	5%	-0.5%	-19%	-1
CCN(C(=O)C1CCN(S(=O)(=O)c2ccc3c(c2)oc(=O)n3C)CC1)c1cccc(C)c1	2%	-1.1%	-19%	-4
Clc1ccccc1-c1ccc2ncnc(NCc3ccc4c(c3)OCO4)c2c1	.	5.3%	-10%	.
Clc1ccc(SCCn2ccnc2)cc1	-2%	-0.8%	15%	12
O=C(Nc1ccccc1Cl)c1ccc(S(=O)(=O)NCC2CCCO2)cc1 (configuration not stated)	7%	-0.9%	-6%	.
O=C(CN1C(=O)COc2ccc(Cl)cc21)N1CCc2ccccc21	-12%	1.0%	0%	10
Cc1cccc(-c2nc3ccccc3c(=O)n2NC(=S)N(C)C)c1	-6%	8.1%	0%	-1
COc1ccccc1NC(=S)NC1CC2CCC1C2 (configuration not stated)	-6%	2.0%	-2%	4
COc1cc(NC(=O)c2cc3c(CO)cnc(C)c3oc2=Nc2cccc(C(N)=O)c2)cc(OC)c1	4%	-1.1%	-5%	.
CCN(CC)S(=O)(=O)c1ccc(S(=O)(=O)N2CCCC2)cc1	3%	?	-1%	8
CC(Sc1nnc2ccccn12)C(=O)Nc1ncc(Cl)cc1Cl (configuration not stated)	-29%	1.1%	3%	3
CC(=O)c1cccc(NC(=O)c2ccc(Br)o2)c1	-28%	-1.7%	18%	2
Cc1c(C)n(Cc2ccccc2)c2ncnc(NCCCO)c12	-2%	1.5%	6%	.
O=S(=O)(c1ccccc1)c1nc(-c2cccs2)oc1NCC1CCCO1 (configuration not stated)	-1%	-0.3%	3%	0
COc1cccc(/C=N/NC(=O)C(C)n2nnc3ccccc32)c1 (configuration not stated)	0%	4.3%	-13%	3
CCC/S(C)=N/S(=O)(=O)c1ccc(C)cc1 (configuration not stated)	3%	-0.9%	1%	1
COc1cccc2c(C)cc(N3CCCCCC3)nc12	4%	1.9%	-7%	.
O=C(COc1ccccc1)N1CCN(c2ccc([N+](=O)[O-])c(N3CCCCC3)c2)CC1	1%	-1.0%	0%	-10

(more compounds)
SMILES	miR-21 reporter	Rango complex inh	Rango dissoc inh	GLA inh pH 4.5
COc1cc(OC)c2cc[nH]c2c1	-14%	-0.3%	20%	10
Cc1cnc(C)c(N2CCN(Cc3nc(-c4cccc(F)c4F)oc3C)CC2)n1	-4%	-5.3%	6%	1
CCOc1ccc(N(CC(=O)NCCSCc2ccc(C)cc2)S(C)(=O)=O)cc1	0%	3.1%	-4%	.
O=C(NCc1ccccc1CN1CCCC1)C1CCN(S(=O)(=O)c2ccc(F)c(F)c2)CC1	.	-3.9%	-12%	.
CCOC(=O)c1[nH]c(C)c(C(=O)N2CCN(c3ccc(F)cc3)CC2)c1C	2%	-1.4%	2%	-5
O=C(O)CN1C(=O)NC2(CCc3ccccc32)C1=O (configuration not stated)	0%	4.7%	14%	.
CCc1ccc(OCC(=O)Nc2nnc(-c3ccco3)s2)cc1	-8%	0.0%	-3%	.
CN(C(=O)n1cnc2ccccc21)c1ccccc1	-2%	0.8%	-18%	3
CN(C(=O)c1cc([N+](=O)[O-])ccc1N1CCCC1)C1CCCCC1	-2%	0.7%	5%	.
Cc1c(C(=O)NN2CCN(C)CC2)cccc1[N+](=O)[O-]	-2%	-0.9%	0%	-2
CN(Cc1ccccc1)C(=S)NC(=O)c1ccc(-c2ccccc2)cc1	-10%	0.4%	4%	7
CN(C)c1ccc(NC(=O)CN2CCN(S(=O)(=O)c3cc(Cl)ccc3Cl)CC2)cc1	-6%	?	-23%	-10
CC(=O)c1c(C)[nH]c(C(=O)NCCc2c[nH]c3ccccc23)c1C	-27%	-2.9%	-1%	.
O=C(CCn1nc(-c2ccc(Cl)cc2)ccc1=O)NCc1ccccn1	-3%	3.1%	6%	15
CC(=O)OCC1OC(n2ncc(=O)n(Cc3ccccc3)c2=O)C(OC(C)=O)C1OC(C)=O (configuration not stated)	-8%	2.1%	-9%	-11[21.1 µM]
CSc1ccc(/C=N/Nc2ccc(Cl)c(C(=O)O)c2)cc1	-51%	-2.1%	-5%	-7
CCn1c(C)c(C)c2cc(C(=O)NCCCN3CCOCC3)ccc21	-7%	?	-3%	.
COc1ccc(OCC(=O)N2c3ccccc3CC2C)c([N+](=O)[O-])c1 (configuration not stated)	.	0.5%	-9%	.
COc1cc(C(=O)N(Cc2cccnc2)Cc2cc3cc4c(cc3[nH]c2=O)OCCO4)cc(OC)c1OC	-14%	?	-5%	0
Cc1cc(Nc2ccccc2)n(CCC#N)n1	-5%	0.0%	5%	1
CS(=O)(=O)N(CC(=O)N1CCCC1)c1ccccc1F	4%	1.1%	-8%	.
CCCn1c(N)c(N(CCOC)C(=O)c2ccc(S(=O)(=O)N3CCOCC3)cc2)c(=O)[nH]c1=O	.	-1.0%	-12%	.
COc1cc(OC)c(C(=O)Nc2cccc(C(C)=O)c2)cc1OC	-40%	0.2%	0%	-6
O=C1N=c2ccccc2=C1c1c(O)[nH]c2c(C(F)(F)F)cccc12	-1%	-2.2%	26%	.

Record cards, from the list above.
O=C1N=c2ccccc2=C1c1c(O)[nH]c2c(C(F)(F)F)cccc12 as listed: miR-21 reporter = -1%; Rango complex inh = -2.2%; Rango dissoc inh = 26%; GLA inh pH 4.5 = .
CC(=O)c1c(C)[nH]c(C(=O)NCCc2c[nH]c3ccccc23)c1C as listed: miR-21 reporter = -27%; Rango complex inh = -2.9%; Rango dissoc inh = -1%; GLA inh pH 4.5 = .

(next part)
SMILES	miR-21 reporter	Rango complex inh	Rango dissoc inh	GLA inh pH 4.5
Cc1ccc(C2C=C(c3ccccc3OC(F)F)Nc3ncnn32)cc1 (configuration not stated)	-1%	?	?	-2
CC(C)(C)OC(=O)[C@H](CCCCN)NC(=O)c1nc[nH]c1C(=O)N[C@@H](CCCCN)C(=O)OC(C)(C)C	.	-0.8%	-14%	.
Cc1nnc(SCC(=O)N2c3ccccc3Sc3ccccc32)n1N	-7%	-5.2%	9%	2
O=C(COC(=O)/C=C/c1ccccc1Cl)NC(=O)NCc1ccccc1	.	4.6%	-3%	.
N#CC(c1ccc(O)cc1)N1CCCCC1 (configuration not stated)	3%	2.3%	-15%	2
CCOCCCNC(=O)Cc1ccc(Br)cc1	-2%	-0.8%	-6%	-7
O=C(NC1CCCCC1)Sc1ccc(Cl)cc1	-10%	-0.1%	3%	0
CC(=O)c1cccc(NS(=O)(=O)N(C)C)c1	-2%	5.5%	-9%	-16
COc1cc(OC)c(OC)cc1CN1CCN(Cc2cccc(F)c2)CC1	0%	4.7%	-8%	.
CC(C)CCn1c(CN2CCN(c3cccc(Cl)c3)CC2)nc2c1c(=O)n(C)c(=O)n2C	3%	-0.3%	-4%	-15
